gsp agonist – qHTS for Agonist of gsp, the Etiologic Mutation Responsible for Fibrous Dysplasia/McCune-Albright Syndrome: qHTS; gsp mutant cells, cAMP HTRF, 30 min; control for the full effect not named in the record; Potency, µM (series often up to 76.9 µM), for the others: at the highest dose activation (cAMP increase), usual class: activators; hit rate 0.13% among 340,000; active = well fitted activation curve with a large enough effect; inconclusive = small, poorly fitted or top-dose-only effect, or another doubt; inactive = no such curve, though single readings can be large or run the other way; cell line not stated here;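 further: phosphodiesterase inhibitor Ro 20-1724 added with compounds to block cAMP breakdown; potency means the concentration at half of the fitted maximal effect; nearly all actives have a fitted effect of over 60% in size; about a fifth of the inactives were tested at one dose only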
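Cells stably selected in G418 were plated at 2000/well, grown 16-24 hr, then given compounds in DMSO with the PDE inhibitor […] (300 uM solution added) for 30 min at 37C; cAMP was read by HTRF.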
CtBP-E1A inh – qHTS Assay for Inhibitors of the CtBP/E1A Interaction | CtBP / adenovirus E1A interaction (AlphaScreen) | AlphaScreen GST-E1A/His-CtBP binding, 1536-well; active compounds read low; control for the full effect not named in the record | activity change, % (test concentration not listed) | hit rate 0.49% among 340,000 | AID 651724, 2012; in the data active means activity change below about -65%; inconclusive means about -30% to -65%; inactive means above about -30%; further: on the % scale 0 is the no-effect control and ±100 the full control effect
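In 5 uL wells, 23 nL compound meets equimolar GST-E1A and His-CtBP (5X stock 125 nM each) for 2 h, 37 °C. Beads (5X, 50 ug/mL) then 1 h, 37 °C, dark.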
gsp antagonist – qHTS for Antagonists of gsp, the Etiologic Mutation Responsible for Fibrous Dysplasia/McCune-Albright Syndrome: qHTS | Potency, µM (doses to about 76.9 µM), for inactives: at the highest dose activity change, negative = inhibition, most hits filed as inhibitors | hit rate 0.4% among 340,000 | gsp-mutant cells, cAMP HTRF, 30 min; control for the full effect not named in the record; active = falling curve of any shape with a large fitted effect; inconclusive = falling curve, mostly with a smaller effect; inactive = flat or rising curve; cell line not stated here;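 further: intracellular cAMP measured with PDE inhibitor Ro 20-1724 present during compound exposure; potency means the concentration at half of the fitted maximal effect; on the % scale 0 is the no-effect control and ±100 the full control effect; nearly all actives have a fitted effect of over 65% in size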
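HTRF cAMP read-out (cAMP-d2 plus anti-cAMP antibody-K in lysis buffer, 30 min RT). Before lysis, cells are exposed to compounds with […] for 30 min at 37C in DPBS containing Ca/Mg, BSA and Tween 20.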
Six1-Eya2 inh – qHTS Assay for Inhibitors of the Six1/Eya2 Interaction; AlphaScreen GST-Six1/His-Eya2 binding, biochemical; active compounds read low; control for the full effect not named in the record; activity change, % (no concentration beside the values); hit rate 0.56% among 360,000; AID 651725, 2012; in the data active = activity change below about -65%; inconclusive = about -30% to -65%; inactive = above about -30%; further: on the % scale 0 is the no-effect control and ±100 the full control effect
Target sequence (O00167 whole entry, looked up): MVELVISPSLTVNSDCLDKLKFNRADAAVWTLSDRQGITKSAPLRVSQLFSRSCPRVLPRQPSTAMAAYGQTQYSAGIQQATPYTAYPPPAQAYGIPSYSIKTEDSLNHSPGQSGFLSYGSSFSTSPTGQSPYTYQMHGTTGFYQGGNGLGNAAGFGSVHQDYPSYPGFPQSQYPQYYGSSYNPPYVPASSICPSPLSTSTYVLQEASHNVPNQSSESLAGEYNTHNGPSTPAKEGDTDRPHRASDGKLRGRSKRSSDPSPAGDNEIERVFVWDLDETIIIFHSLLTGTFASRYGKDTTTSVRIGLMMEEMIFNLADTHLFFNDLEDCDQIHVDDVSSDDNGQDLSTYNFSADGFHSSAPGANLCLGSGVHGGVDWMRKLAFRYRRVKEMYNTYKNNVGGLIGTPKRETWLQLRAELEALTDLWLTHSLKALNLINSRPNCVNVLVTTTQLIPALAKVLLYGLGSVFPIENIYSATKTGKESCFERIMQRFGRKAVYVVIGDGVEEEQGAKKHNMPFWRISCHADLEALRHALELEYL
Target sequence (Q15475 whole entry, looked up): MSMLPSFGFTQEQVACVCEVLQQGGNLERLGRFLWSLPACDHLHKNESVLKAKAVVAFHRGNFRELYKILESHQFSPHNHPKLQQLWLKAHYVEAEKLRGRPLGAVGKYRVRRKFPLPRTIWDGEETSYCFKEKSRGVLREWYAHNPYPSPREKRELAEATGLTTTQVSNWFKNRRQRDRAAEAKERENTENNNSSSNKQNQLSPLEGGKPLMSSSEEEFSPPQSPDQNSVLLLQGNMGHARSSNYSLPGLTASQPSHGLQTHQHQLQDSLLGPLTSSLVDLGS
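Homogeneous AlphaScreen proximity assay pairing GST-Six1 with His-tagged Eya2 (added as 5X mix: 250 nM and 500 nM) in 50 mM Tris pH 8.0, 300 mM NaCl, 1 mM TCEP. Glutathione donor and nickel acceptor beads; 1 h, 37 °C, dark.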
D2 agonist – Beta-Arrestin HTS for Positive Allosteric Modulators of the Human D2 Dopamine Receptor: Agonists; D(2) dopamine receptor (Homo sapiens), P14416; DiscoveRx PathHunter D2 beta-arrestin, luminescence, 90 min; 100% = 57 uM dopamine signal; activation, % (no concentration beside the values); hit rate 0.084% among 360,000; AID 624465, 2012; in the data active = activation above about 40%; inconclusive = about 15% to 40%; inactive = below about 15%; further: compound concentration not given in the record; the text of the record calls up to 30% inactive
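Agonist mode: compounds alone added to overnight-plated D2 PathHunter cells for 90 min at 37 C, with 57 uM final dopamine (EC100) defining full response. Beta-arrestin recruitment detected by chemiluminescent reagent, read after 1 h at ambient temperature.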
D2 PAM – Beta-Arrestin HTS for Positive Allosteric Modulators of the Human D2 Dopamine Receptor: Potentiators. D(2) dopamine receptor (Homo sapiens), P14416. hit rate 0.23% among 360,000. potentiation, % (concentration not given with the values). DiscoveRx D2 beta-arrestin cells, luminescence, 90 min; 100% = 57 uM dopamine signal; active = potentiation of 50% or more; inconclusive = 30% to 50%; inactive = 30% or less;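 further: compound concentration not given in the record; tested on top of an EC20 dose of dopamine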
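PathHunter beta-arrestin assay in DiscoveRx D2 cells. Compounds were added with an EC20 of dopamine (50 nM final) for 90 min at 37 deg C. Luminescence was read 1 h after detection reagent, with 57 uM dopamine as the EC100 control.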
An asterisk follows results filed as active; ? = inconclusive; / = no result given; [ ] = remark or other dose.

gsp antagonist | gsp agonist | D2 agonist | D2 PAM | Six1-Eya2 inh | CtBP-E1A inh | Compound
/ | / | 5.0 | -4 | -9 | -4 | OCCN1CCN(c2ncnc3c2ncn3[C@H]2CN(Cc3ccc(-c4ccccc4)cc3)C[C@@H](CO)O2)CC1
11% | -6% | -1.0 | -5 | -1 | 0 | CCCOc1ccc(C2C(C#N)=C(N)Oc3nc[nH]c(=O)c32)cc1OC (stereo not drawn)
-5% | -7% | -1.5 | -18 | 1 | 18 | Cc1nnc(OCC(=O)NCCC2=CCCCC2)c2ccccc12
-7% | -3% | 0.2 | 24 | 1 | 4 | COc1ccc2c(CC(=O)OCC(=O)N3CCc4ccccc43)coc2c1
3% | -50%[inhibitor] | -2.1 | -35 | 6 | -5 | COc1ccc(C(=O)N/N=C\c2ccoc2)cc1
16% | -1% | -0.7 | -29 | -1 | 0 | CN1CCn2c1nc(N1CCCCC1)nc2=O
-17% | 4% | 0.2 | 15 | -7 | -10 | COc1ccc(NS(=O)(=O)c2ccc(N/N=C(\C)c3ccncc3)c([N+](=O)[O-])c2)cc1
5% | -4%[15.4 µM] | 0.5 | -7 | -3 | 8 | O=C(CSc1nc2nc3c(cc2c(=O)n1-c1ccccc1)CCCC3)Nc1cccc2ccccc12
13% | 8%[15.4 µM] | 14 | 19 | 1 | / | CCc1cc2c3c(c1)C1(C(=O)N3C(C)(C)C=C2C)C(C#N)=C(N)Oc2[nH]c(=O)[nH]c(=O)c21 (stereo not drawn)
1% | 4% | 1.9 | -13 | 1 | -7 | O=C(NCC1CCCCC1)C1CCCN(C(=O)NC2CCCCC2)C1 (stereo not drawn)
-2% | ? | -0.9 | -4 | 0 | -1 | O=C(CSc1c2c(nc3cc(Cl)ccc13)CCCC2)NCCN1CCOCC1
-1% | 8% | -2.7 | -18 | 2 | -14 | Cc1ccc(NC(=O)COC(=O)Cc2ccsc2)cc1S(=O)(=O)N(C)C
-6% | ? | -0.8 | -1 | 12 | 6 | OCCN(Cc1ccccc1)C(=S)NC1CCCCC1
9% | -36%[inhibitor] | 1.8 | -1 | -15 | -4 | Cc1c(C(=O)OCC(C)C)[nH]c2c1C(=O)CC(c1ccco1)C2 (stereo not drawn)
-7% | -31%[inhibitor] | -0.7 | 8 | -90* | -91* | CCN(CC)c1ccc(/C=N/NC(=O)c2c(Cl)cnn2C)c(O)c1
-4% | -30% | -2.6 | -9 | -9 | -8 | C=CCn1c(SCC(=O)Nc2ccc(NC(=O)c3ccco3)c(OC)c2)nnc1-c1ccncc1
1% | / | 0.3 | 3 | 1 | 0 | CC(=O)OC[C@]1(OC(C)=O)C[C@@]23CC[C@H]4[C@@](C)(CCC[C@@]4(C)C(=O)O)[C@@H]2CC[C@@H]1C3
8.9µM* | 1% | 5.0 | 0 | -29 | 8 | O=C(CSC1=NCCS1)Nc1ccc(F)cc1
-4% | 8%[15.4 µM] | -0.7 | -13 | -14 | 10 | CN1CCN(c2ccc(NC(=O)c3ccc(Oc4ccccc4)cc3)cc2)CC1
? | 5% | -1.9 | 5 | 4 | 5 | CCOC(=O)N1CCN(c2nc(-c3ccc(OC)cc3)no2)CC1

Single records, from the list above.
Profile of O=C(CSC1=NCCS1)Nc1ccc(F)cc1 → gsp antagonist = 8.9µM*; gsp agonist = 1%; D2 agonist = 5.0; D2 PAM = 0; Six1-Eya2 inh = -29; CtBP-E1A inh = 8
Profile of Cc1c(C(=O)OCC(C)C)[nH]c2c1C(=O)CC(c1ccco1)C2 (stereo not drawn) → gsp antagonist = 9%; gsp agonist = -36%[inhibitor]; D2 agonist = 1.8; D2 PAM = -1; Six1-Eya2 inh = -15; CtBP-E1A inh = -4
Profile of C=CCn1c(SCC(=O)Nc2ccc(NC(=O)c3ccco3)c(OC)c2)nnc1-c1ccncc1 → gsp antagonist = -4%; gsp agonist = -30%; D2 agonist = -2.6; D2 PAM = -9; Six1-Eya2 inh = -9; CtBP-E1A inh = -8

The results go on:
gsp antagonist | gsp agonist | D2 agonist | D2 PAM | Six1-Eya2 inh | CtBP-E1A inh | Compound
9% | 7% | 4.3 | -21 | ? | ? | Cc1ccc2c(c1)c1c(n2CC(O)CN2CCCCC2C)CCCC1 (stereo not drawn)
3% | 3% | 0.9 | -7 | 0 | -2 | Cc1c(C(=O)N2CCN(c3ccccc3)CC2)sc2nc3n(c(=O)c12)CCC3
2% | / | 1.5 | / | 25 | 32 | COC(=O)c1ccc2c(c1)c(C#Cc1ccccc1)c(-c1ccccc1)n2C
4% | -10% | -2.9 | 0 | -5 | 0 | CCCOc1cccc(C2C(C(=O)c3ccco3)=C(O)C(=O)N2CCN(CC)CC)c1 (stereo not drawn)
14% | 21% | -3.6 | -10 | 6 | -6 | CCOC(=O)c1c(NC(=O)C2(C)Cc3ccccc3C(=O)O2)sc2c1CCCC2 (stereo not drawn)
-8% | -13% | -6.2 | -23 | ? | -4 | CCN1CCN(c2cc(C)nc(-c3ccccc3O)n2)CC1
0% | 0% | -3.8 | -9 | -11 | 0 | CC(C)OC(=O)CC1C(=O)NCCN1C(=S)NC(=O)c1ccccc1Cl (stereo not drawn)
-15% | -102%[inhibitor] | -5.4 | -5 | -5 | / | Cc1cccc(C(=O)N[C@H](C(=O)Nc2ccc(C)c(S(=O)(=O)N(C)C)c2)C(C)C)c1
6% | / | -0.6 | -2 | -1 | -1 | CC[C@H](C)[C@@H](C(=O)N1CCNCC1)n1cc([C@@H](N)Cc2ccc(O)cc2)nn1
-19% | -28% | -0.4 | -4 | -6 | -4 | COC(=O)c1ccc(-c2ccco2)n1Cc1cc(C)ccc1C
35µM* | ? | -1.0 | 27 | 1 | -2 | COc1cc(NS(=O)(=O)c2ccc(C)cc2C)cc(OC)c1OC
-14% | -37%[inhibitor] | -2.5 | 6 | 7 | -11 | OC(CN1C2=NCCN2c2ccccc21)c1ccccc1 (stereo not drawn)
11% | -59%[inhibitor] | 2.4 | -10 | -7 | 4 | Cc1ccc(C(=O)NCc2cccnc2)cc1S(=O)(=O)Nc1ccccc1
7% | / | -3.6 | -10 | -28 | 3 | C/C=C\C=C/C(=O)Nc1cccc(C2=NOC3(C2)C[C@@H](C(N)=O)N(C(=O)/C=C/C=C\C)C3)c1 (stereo partly drawn)
17% | 2% | 0.1 | 0 | 1 | 17 | COc1ccc(NC(=O)/C=C/c2ccc3c(c2)OCO3)cc1
12% | 14% | -3.1 | -29 | 4 | 1 | Cc1ccc(N2CCN(CCCN3C(=O)C4CCCN4C3=O)CC2)cc1 (stereo not drawn)
1% | -1%[15.4 µM] | 2.0 | -9 | -2 | -24 | COc1ccc(-c2csc(/N=C/N(C)C)n2)cc1OC
-2% | 3%[15.4 µM] | -4.6 | -11 | 5 | 5 | CCCC12CN3CCN(CC(C3)/C1=N\NC(=O)c1ccccc1N)C2
-7% | -11% | -2.5 | -2 | 5 | / | CC1(C(=O)O)CCC(C(=O)Nc2ccc(Cl)c(Cl)c2)C1(C)C (stereo not drawn)
-4% | -15%[15.4 µM] | -0.8 | -4 | 11 | -1 | COC(=O)c1sc(NC(=O)COc2c(C)cccc2C)nc1C
8% | -48%[inhibitor] | -4.2 | 9 | -5 | 18 | CC(=O)N1CCN(Cc2nc3cc(NC(=O)Cn4nc(C)c5ccccc5c4=O)ccc3n2C)CC1
-2% | -13% | -0.3 | 6 | -1 | 8 | NC(=O)NC(Cc1ccccc1)c1ccccc1 (stereo not drawn)
12% | -9%[15.4 µM] | -3.4 | -6 | 1 | 8 | O=C(NCCCCO)c1ccc2c3c(cccc13)CC2
3% | 2% | -3.6 | -15 | 5 | 5 | Cc1cnc(C(=O)OCC(=O)N(C)CC(=O)Nc2ccccc2Cl)cn1
11% | 26% | -0.7 | -2 | 4 | -5 | CCOCCCn1c(=S)[nH]c2cc(C(=O)NC3CCCCC3C)ccc2c1=O (stereo not drawn)
-11% | 20% | 13 | -3 | 3 | 8 | CC1CCN(C(=O)COc2ccc(S(=O)(=O)N3CCCC3)cc2)CC1
-4% | 13%[15.4 µM] | -2.3 | -20 | -7 | -2 | CC(=O)SC1CC(=O)C=C2CCC3C4CCC(=O)OC4(C)CCC3C21C (stereo not drawn)
12% | -14% | -3.1 | -11 | -14 | -2 | Cn1c(N)c(C(=O)COC(=O)c2ccc(Br)o2)c(=O)n(C)c1=O
6% | 14%[15.4 µM] | -4.3 | -7 | -6 | -7 | CCc1ccccc1Cn1c(=O)oc2cccnc21
/ | 3%[15.4 µM] | 0.0 | -24 | 0 | -12 | Cc1cc(C)n(C(=O)/C(C#N)=N\Nc2ccccc2[N+](=O)[O-])n1
/ | -26% | -7.6 | -1 | 29 | -13 | C[C@@H]1CN([C@@H](C)CO)C(=O)CCCn2nncc2CO[C@@H]1CN(C)S(=O)(=O)c1cccc(C#N)c1
10% | 12% | -4.3 | -7 | 0 | -2 | c1coc(-c2nn3c(Cn4nnc5ccccc54)nnc3s2)c1
? | 2% | -2.9 | -17 | 3 | / | COc1ccc(C)cc1NC(=O)CNC(C)C(=O)Nc1cc(Cl)ccc1Cl (stereo not drawn)
5% | 28% | 0.6 | -8 | -1 | -14 | Cc1cccc(C)c1OCC(=O)N/N=C/c1ccncc1
-6% | -9% | -4.8 | 1 | 10 | 0 | Cc1cccc(-c2nc(=S)c3c(o2)CCCC3)c1
/ | / | 4.1 | -2 | -3 | 5 | CC1(C(=O)NCc2ccccc2)Cc2c(-c3cccc(C(N)=O)c3)ccnc2O1 (stereo not drawn)
-1% | 44% | ? | 6 | 6 | 5 | NC(N)=NS(=O)(=O)c1ccc(N/C=C/C(=O)c2ccc(Cl)c(Cl)c2)cc1
-4% | 5% | 3.2 | 8 | -2 | 11 | COc1ccc(-c2cnc3c(-c4ccc(F)cc4)cnn3c2N)cc1
-13% | / | -3.1 | -9 | -5 | 0 | Oc1ccc(C[C@H]2CNCCN2CCc2cc(C(F)(F)F)cc(C(F)(F)F)c2)cc1
-1%[15.4 µM] | 2% | -3.7 | -4 | 4 | 2 | CCOC(=O)C1C(=O)CC(O)(c2ccccc2)CC1c1ccccc1 (stereo not drawn)
3% | 20% | -0.7 | -2 | -15 | -6 | Cc1ccc2[nH]c(=O)c(-c3noc(C(C)C)n3)cc2c1

Compounds as they come, and some 1.4% of all compounds hit somewhere here.
